GALR2 agonist = agonists of human galanin receptor 2 (GALR2). GALR2-expressing cells, agonist activation read-out. activation, %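 (tested at 5 µM)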. 0.48% of 140,000 active. AID 803;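 active means above mean plus 3 SD of all compounds, about 5% in these data, not always enough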;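 further: 0% = vehicle buffer wells and 100% = reference agonist at full effect; tested in CHO reporter cells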
INS promoter inh = TRM-6 insulin promoter activity inhibition. TRM-6 cells (human fetal islet line), insulin promoter-eGFP reporter, imaging; reporter expression induced with tamoxifen. inhibition, % at 2 µM. 0.9% of 130,000 active;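 active means inhibition above the mean plus 3 SD, with well images judged a real hit on visual review, cut at about 60% in these data, passing the limit was not always enough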
HSV replic up = increases HSV replication in cells | HSV replication augmentation in cells, fold increase | maximum fold increase | 0.005% of 220,000 active;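 active means peak rise of 1.5-fold or more in the series; tested in PC3 cells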;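 further: first round at 10 µM; read as green reporter fluorescence; hits show the peak of a series up to 25 µM; 1 = signal of infected wells without compound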
PKD1 inh = blocks activity of human protein kinase D1; inhibition, %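 (about 10 µM by stock and volumes)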; 0.056% of 200,000 active; PKD1 kinase fluorescence polarization assay;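 active means inhibition of 50% or more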;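 further: controls were vehicle for no effect and a reference inhibitor for full effect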
Target sequence (Q15139 whole entry, looked up): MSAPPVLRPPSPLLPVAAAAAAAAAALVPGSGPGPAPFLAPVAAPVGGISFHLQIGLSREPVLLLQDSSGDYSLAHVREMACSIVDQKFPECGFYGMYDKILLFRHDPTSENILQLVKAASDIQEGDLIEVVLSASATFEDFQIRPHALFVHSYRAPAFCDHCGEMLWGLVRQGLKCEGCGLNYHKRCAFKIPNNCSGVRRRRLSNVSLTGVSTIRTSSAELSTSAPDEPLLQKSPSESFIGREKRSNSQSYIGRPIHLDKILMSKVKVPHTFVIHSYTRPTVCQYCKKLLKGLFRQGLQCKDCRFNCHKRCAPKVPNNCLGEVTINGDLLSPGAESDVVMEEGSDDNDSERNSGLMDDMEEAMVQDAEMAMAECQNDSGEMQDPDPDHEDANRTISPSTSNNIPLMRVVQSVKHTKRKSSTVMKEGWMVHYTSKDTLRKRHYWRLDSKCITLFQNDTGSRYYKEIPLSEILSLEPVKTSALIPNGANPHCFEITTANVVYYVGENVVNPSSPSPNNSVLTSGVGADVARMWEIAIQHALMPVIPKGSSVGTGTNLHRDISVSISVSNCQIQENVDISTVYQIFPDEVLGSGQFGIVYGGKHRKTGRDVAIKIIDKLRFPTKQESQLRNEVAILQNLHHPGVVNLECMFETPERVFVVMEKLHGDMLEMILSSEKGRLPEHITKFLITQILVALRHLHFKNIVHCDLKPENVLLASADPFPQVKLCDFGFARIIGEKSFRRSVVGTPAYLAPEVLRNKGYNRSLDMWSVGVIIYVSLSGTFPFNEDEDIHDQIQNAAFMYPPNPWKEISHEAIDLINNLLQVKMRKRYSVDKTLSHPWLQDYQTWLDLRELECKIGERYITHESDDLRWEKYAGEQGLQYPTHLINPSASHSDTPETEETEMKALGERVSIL
RGS16-Gao = regulators of human RGS16-Galphao interaction | bead-based flow cytometry RGS16-Galphao binding, fluorescence; actives lie on both sides | AID 1441 | 0.38% of 220,000 active | binding response (% of control), % at 10 µM;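 active means below 25% or above 175%, edge rows of some plates excepted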;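 further: Galphao activated by GDP with aluminum fluoride before binding; 100% = wells without compound and 0% = beads without RGS; some results beyond the cut were filed as inactive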
INS promoter inh cell count = further read-out of INS promoter inh, marked with its call; normalized cell count, %; measured here: cell count, toxicity; reference of the scale not given here;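 cells exposed to compound for 48 h; stained nuclei by imaging scaled within each plate; lower means fewer cells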
HSV replic up primary fold = also measured in HSV replic up; calls as there; fold increase; compound at 10 µM; measured here: primary screen fold increase 10 uM; tested in PC3 cells;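 GFP signal in the first replicate; 1 = infected wells without compound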
The depositor's hits bear a star; i = inactive; . = not tested or not shown.

A first look, two compounds:
SMILES | GALR2 agonist | INS promoter inh | INS promoter inh cell count | HSV replic up | HSV replic up primary fold | PKD1 inh | RGS16-Gao
CCC1S/C(=C(\C#N)C(=O)NCc2ccco2)N(c2ccc(Br)cc2)C1=O (configuration not stated) | -0.8 | . | . | i | 0.91 | -4.6 | 98.8
Cc1ccc(NC(=O)CN(C)Cc2nc3c(Br)cc(Br)cc3c(=O)[nH]2)cc1 | . | -55.0 | 91.9 | i | 0.94 | -7.7 | 106.5

This part in full, repeating the preview:
SMILES | GALR2 agonist | INS promoter inh | INS promoter inh cell count | HSV replic up | HSV replic up primary fold | PKD1 inh | RGS16-Gao
CCC1S/C(=C(\C#N)C(=O)NCc2ccco2)N(c2ccc(Br)cc2)C1=O (configuration not stated) | -0.8 | . | . | i | 0.91 | -4.6 | 98.8
Cc1ccc(NC(=O)CN(C)Cc2nc3c(Br)cc(Br)cc3c(=O)[nH]2)cc1 | . | -55.0 | 91.9 | i | 0.94 | -7.7 | 106.5
CCOC(=O)N1CCC(NC(=O)c2sc(-n3cccc3)nc2C)CC1 | -0.6 | -14.3 | 101.5 | i | 0.94 | 5.2 | 107.2
O=C(c1ccc(Br)o1)N1CCCc2ccccc21 | -2.4 | -23.1 | 108.7 | i | 0.69 | -2.4 | 97.0
COc1cc(CNc2ccc3[nH]c(=O)[nH]c3c2)ccc1OCC(=O)NC(C)(C)C | -1.7 | -64.3 | 110.0 | i | 1.06 | 0.5 | 93.5
COc1ccc(C(=O)NCc2cc(C)nc3ccccc23)cc1OC | . | 100.0* | 115.5* | i | 0.89 | -3.0 | 108.0
COc1ccc(-n2c(C)nc3sc4c(c3c2=O)CCC4)cc1 | . | 43.8 | 75.1 | i | 0.97 | -5.5 | 96.0
c1ccc(Nc2n[nH]nc2-c2ccccc2)cc1 | -1.7 | . | . | i | 0.903 | -5.9 | 125.5
CCCCN(CC)CCNc1c(N2CCN(C(=O)OCC)CC2)c(=O)c1=O | 0.5 | . | . | i | 0.96 | 4.9 | 104.2
O=S(=O)(c1cccc(NC(=S)NCc2ccco2)c1)N1CCOCC1 | -0.5 | 13.5 | 98.9 | i | 0.93 | -9.9 | 117.8
COc1ccccc1Nc1nc(N)nc(CN2CCN(c3ccccc3F)CC2)n1 | -1.6 | -61.1 | 131.9 | i | 1.06 | -10.9 | 102.4
CC1(C)CC(=O)C2=C(C1)N(c1ccc(F)cc1)C(=O)CC2c1ccccc1 (configuration not stated) | 0.3 | -58.1 | 63.8 | i | 0.91 | -3.1 | 63.5
CC(NCc1cccc(S(=O)(=O)N(C)C)c1)c1ccc(F)cc1 (configuration not stated) | . | . | . | i | 1.17 | . | 92.3
CCn1c2ccccc2c2cc(NC(C)=O)ccc21 | -1.2 | -18.8 | 106.8 | i | 0.92 | 7.3 | 101.6
CCOC(=O)C1=C(c2ccccc2)NC(SC)=C(C#N)C1c1cccnc1 (configuration not stated) | -0.7 | -60.0 | 48.3 | i | 0.98 | -1.4 | 71.8

Copied from the list:
c1ccc(Nc2n[nH]nc2-c2ccccc2)cc1 | HSV replic up primary fold: 0.903
COc1ccccc1Nc1nc(N)nc(CN2CCN(c3ccccc3F)CC2)n1 | INS promoter inh cell count: 131.9

Later entries:
SMILES | GALR2 agonist | INS promoter inh | INS promoter inh cell count | HSV replic up | HSV replic up primary fold | PKD1 inh | RGS16-Gao
O=C(NNC1CC(=O)N(c2ccccc2)C1=O)c1ccccc1Cl (configuration not stated) | . | . | . | i | 0.96 | . | 100.6
Cc1ccc(O)c(CNc2nc3ccccc3n2C)c1 | -3.3 | 11.8 | 81.8 | i | 0.93 | -3.0 | 104.0
COc1ccc(C)cc1S(=O)(=O)N(C)CC(=O)Nc1ccc2c(c1)OCO2 | -2.1 | -27.7 | 160.3 | i | 0.91 | -4.0 | 97.4
Cc1cccc(NC(=S)/N=C(\N)Nc2nc(C)c3ccccc3n2)c1 | -0.2 | -4.0 | 53.4 | i | 0.88 | -4.9 | 120.3
O=C(NC(=S)Nc1c(F)cc(F)cc1Br)c1ccc2c(c1)OCCO2 | . | 36.8 | 127.4 | i | 0.93 | -2.1 | 97.9
CC(C)c1cc(-c2n[nH]c(=S)n2Cc2ccccc2)cs1 | 0.1 | 46.4 | 64.9 | i | 0.84 | 4.8 | 106.1
Cc1ccc(C(=O)CSc2nc3ccccc3c(=O)n2N)o1 | -1.7 | 5.3 | 136.7 | i | 0.95 | 0.5 | 84.4
COc1ccccc1NC(=S)N/N=C1\CC(C)(C)Oc2ccc(O)cc21 | . | . | . | i | 0.83 | 0.6 | 100.0
Cc1ccc(Oc2nc(-c3ccccc3)ncc2S(C)(=O)=O)cc1 | -0.8 | -18.2 | 108.3 | i | 0.963 | 5.6 | 100.2
O=C(CSc1nnc2scc(-c3ccccc3)n12)NCc1ccco1 | -2.4 | 12.5 | 89.5 | i | 0.81 | -3.5 | 102.8
Cc1ccc(Cn2nnc(C(=O)Nc3cccc(C)c3C)c2N)cc1 | 1.9 | 18.5 | 86.9 | i | 0.81 | 3.0 | 100.0
CC(C)=N/N=C(\N)SCc1ccccc1 | . | . | . | i | 0.92 | . | 82.2
Nc1nnc(CC(c2ccccc2)c2ccccc2)s1 | -1.3 | 11.1 | 83.6 | i | 1.02 | 5.9 | 95.0
N#Cc1ccccc1Cn1cc(C#N)c2ccccc21 | -2.5 | -462.5 | 47.9 | i | 0.94 | -1.4 | 102.2
CC1CCN(C(=O)/C(=C/c2ccccc2Cl)c2ccccc2)CC1 | -1.2 | -26.7 | 80.9 | i | 1.04 | 9.0 | 103.1
O=C(O)COc1ccccc1/C=N/NC(=O)CSc1nnc(SCc2cccc3ccccc23)s1 | . | . | . | i | 0.89 | . | 97.3
CCCn1cc(CN2CCC(Cc3cccc(F)c3)(C(=O)OCC)CC2)c(C)n1 | . | . | . | i | 0.92 | . | 98.4
O=C(NCCC1=CCCCC1)C1CCCN(S(=O)(=O)c2ccccc2)C1 (configuration not stated) | -0.7 | -47.1 | 137.7 | i | 1.01 | -7.8 | 103.7
CCCCCC(=O)NNC1CC(=O)N(c2cccc(OCC)c2)C1=O (configuration not stated) | . | . | . | i | 0.95 | . | 98.2
CC(C)C(NC(=O)CC12CC3CC(CC(C3)C1)C2)C(=O)O (configuration not stated) | -0.7 | . | . | . | . | -0.9 | 104.0
CCCCCCCCNC(=O)CC(NS(=O)(=O)c1ccc(NC(C)=O)cc1)C(C)C (configuration not stated) | 0.2 | -77.8 | 80.4 | i | 0.91 | 2.8 | 100.2
CC1CCN(S(=O)(=O)c2ccc(NC(=O)c3cccs3)cc2)CC1 | -1.3 | 3.9 | 47.5 | i | 0.79 | 8.0 | 97.2
COC(=O)[C@H](CC(C)C)NC(=O)Nc1cccc(Br)c1 | -1.6 | -7.4 | 76.6 | i | 1.11 | -10.9 | 122.2
Cn1c(CN2CCOCC2)nnc1SCc1cccc(F)c1 | . | -8.3 | 157.9 | i | 1 | -3.3 | 97.7
COc1ccc2c(c1)N(C(=O)CN1C(=O)C3CCCCC3C1=O)C(C)(C)C=C2C (configuration not stated) | 0.2 | -193.0 | 83.9 | i | 0.837 | -2.6 | 114.9
CCOC(=O)N1CCC(=NNc2ccnc3cc(Cl)ccc23)CC1 | . | i | 57.4 | i | 0.92 | 0.2 | 102.3
Nn1c(Cc2ccccc2)n[nH]c1=S | . | -485.7 | 72.7 | i | 0.93 | -8.9 | 95.3
CCCCOC(=O)C1=C(C)Nc2nnnn2C1c1ccc(OC)c(OC)c1OC (configuration not stated) | -1.2 | -25.0 | 105.4 | i | 0.81 | -6.2 | 103.0
COc1ccc(-c2nnc(SC(C)C(=O)NCc3ccc4c(c3)OCO4)n2Cc2ccco2)cc1 (configuration not stated) | -1.3 | -45.7 | 44.1 | i | 0.76 | 0.2 | 102.9
CCOC(=O)c1c(CCl)nc2ccccc2c1-c1ccccc1 | . | . | . | i | 1.08 | . | 98.7
O=C(Nc1ccc(Cl)cc1)N1CCSC1=NCc1ccccc1 | . | . | . | i | 0.98 | . | 96.8
CCCn1c(=N)n(CC(O)c2ccc(C)cc2)c2ccccc21 (configuration not stated) | . | . | . | i | 0.71 | . | 110.0
C(=N\Nc1nc2ccccc2[nH]1)/c1c[nH]c2ccccc12 | -0.1 | 34.5 | 112.8 | i | 0.53 | 8.0 | 104.2
CCN(C(=S)Nc1ccccc1F)C1CCCCC1 | -1.1 | . | . | i | 1.04 | 1.1 | 96.2
O=C(Nc1ncccc1O)c1c(O)c2ccccc2[nH]c1=O | . | . | . | i | 1.02 | . | 98.6
CC(=O)c1sc(C(C)(C)C)cc1NC(=O)/C=C/C(=O)O | . | . | . | i | 1.24 | . | 101.0
O=C(OCCN1CCCCC1)c1ccccc1Cl | -0.6 | . | . | i | 0.997 | -7.4 | 98.7
CCOc1ccc(Oc2cc(NC(=O)c3ccco3)cc([N+](=O)[O-])c2)cc1 | -1.7 | . | . | . | . | -4.1 | 92.8
O=C(Cn1cnc2ccccc2c1=O)NCCC(=O)N1CCN(Cc2ccccc2)CC1 | 4.7 | -24.1 | 47.2 | i | 0.99 | -4.5 | 98.2
O=C(Nc1ccc(Cn2cccn2)cc1)c1ccc(COc2ccccc2Br)cc1 | -4.5 | . | . | i | 0.76 | 1.5 | 100.1
CC(C)NC(=O)Cn1cc(C(=O)C2CC2)c2ccccc21 | . | . | . | i | 1.03 | -3.1 | 97.1
CC(C)CC(NC(=O)OC(C)(C)C)C(=O)NCc1ccccc1 (configuration not stated) | -1.5 | -36.4 | 84.8 | i | 0.95 | 3.2 | 102.5
Nn1c(SCC(=O)NC2CCCC2)nnc1-c1ccccc1F | -0.3 | 64.9 | 78.4 | i | 0.73 | -7.4 | 100.7
C[C@H](N=C1NS(=O)(=O)c2ccccc21)C(=O)OCc1cc([N+](=O)[O-])cc2c1OCOC2 | . | . | . | i | 1.09 | . | 98.4
C=CCOc1cccc(/C=N/NC(=O)CN(c2cc(Cl)ccc2OC)S(=O)(=O)c2ccc(C)c([N+](=O)[O-])c2)c1 | -0.9 | 13.2 | 112.8 | i | 0.84 | -4.7 | 121.9

Single records (already shown). Order of screens: GALR2 agonist, INS promoter inh, INS promoter inh cell count, HSV replic up, HSV replic up primary fold, PKD1 inh, RGS16-Gao
Nn1c(SCC(=O)NC2CCCC2)nnc1-c1ccccc1F is listed with -0.3, 64.9, 78.4, i, 0.73, -7.4, 100.7
C=CCOc1cccc(/C=N/NC(=O)CN(c2cc(Cl)ccc2OC)S(=O)(=O)c2ccc(C)c([N+](=O)[O-])c2)c1 is listed with -0.9, 13.2, 112.8, i, 0.84, -4.7, 121.9
C(=N\Nc1nc2ccccc2[nH]1)/c1c[nH]c2ccccc12 is listed with -0.1, 34.5, 112.8, i, 0.53, 8.0, 104.2
O=C(Nc1ccc(Cl)cc1)N1CCSC1=NCc1ccccc1 is listed with ., ., ., i, 0.98, ., 96.8

Following part:
SMILES | GALR2 agonist | INS promoter inh | INS promoter inh cell count | HSV replic up | HSV replic up primary fold | PKD1 inh | RGS16-Gao
COc1cc(/C=N\n2cnnc2)ccc1OCC(=O)Nc1ccc(C)cc1 | -1.7 | 35.1 | 70.5 | i | 1.08 | -0.4 | 98.9
CCCCCCCCn1c2c(c(=N)c3ccccc31)CCC2 | . | -61.9 | 49.7 | i | 0.5 | -2.7 | 108.6
CC(C)(C)c1ccc(/C=C2\SC(=O)N(CCNC(=O)c3cccc(S(=O)(=O)N4CCOCC4)c3)C2=O)cc1 | -0.4 | -33.3 | 122.2 | i | 0.79 | -2.8 | 108.2
C/C(=N\NC(=O)c1nc2ccccn2c1C)c1ccco1 | . | . | . | i | 1.04 | -4.1 | 97.2
Cc1ccc(S(=O)(=O)NCCN(CCNS(=O)(=O)c2ccc(C)cc2)S(C)(=O)=O)cc1 | -2.6 | -42.9 | 106.2 | i | 1.08 | 5.3 | 104.6
COC(=O)N/N=C(\C)c1ccc(C)c([N+](=O)[O-])c1 | 0.1 | 10.0 | 87.8 | i | 1.06 | -8.8 | 103.2
COc1ccccc1NC(=O)CN(Cc1ccco1)C(=O)c1cncc(Br)c1 | . | . | . | i | 0.98 | . | 104.6
CCCCCCOc1ccc(N2C(=O)CC(N3CCN(C(=O)c4ccco4)CC3)C2=O)cc1 (configuration not stated) | -0.2 | i | 53.4 | i | 1.08 | -1.3 | 109.1
CCOc1ccc(N(CC(=O)N2CC=C(c3ccccc3)CC2)S(=O)(=O)c2c(C)noc2C)cc1 | -2.9 | . | . | i | 1.08 | 1.1 | 102.4
CC(Oc1ccccc1Cl)c1nnc(N)s1 (configuration not stated) | 0.1 | -21.4 | 111.0 | . | . | -1.7 | 101.0
COc1cc(C2NC(=S)NC(c3ccccc3)=C2C(C)=O)cc(Cl)c1OCC(=O)O (configuration not stated) | -2.6 | -30.0 | 133.0 | i | 0.99 | -10.3 | 113.1

Screening results: PubChem BioAssay, several laboratories
